B2AR ag: beta2AR agonists driving receptor internalization, primary screen, cell-based, FAP fluorogen, flow cytometry; Am2.2-beta2AR cells; reference of the scale not given here; hit rate 0.43% among 340,000; response, % (concentration not given with the values); Beta-2 adrenergic receptor (Homo sapiens), P07550;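 active = response above a set limit, near 3 SD of response in nonfluorescent compounds, cut at about 42% in these data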;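 note: stock transfer was 100 nL into about 11 µL; a reference agonist was the positive control; negative values mostly stem from fluorescent compounds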
Target sequence (P07550 whole entry, looked up): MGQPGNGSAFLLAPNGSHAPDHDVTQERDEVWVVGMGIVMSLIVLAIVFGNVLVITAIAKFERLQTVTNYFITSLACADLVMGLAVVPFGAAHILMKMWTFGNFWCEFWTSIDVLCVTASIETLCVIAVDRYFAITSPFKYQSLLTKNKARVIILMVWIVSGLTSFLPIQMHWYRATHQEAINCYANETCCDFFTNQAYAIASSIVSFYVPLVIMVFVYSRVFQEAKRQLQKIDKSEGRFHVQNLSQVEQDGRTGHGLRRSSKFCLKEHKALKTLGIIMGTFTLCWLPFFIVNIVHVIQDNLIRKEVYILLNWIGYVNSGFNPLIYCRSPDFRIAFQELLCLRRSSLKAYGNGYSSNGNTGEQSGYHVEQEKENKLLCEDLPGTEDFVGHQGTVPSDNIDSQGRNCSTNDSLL
ALR H2O2 inh: inhibitors of human ALR sulfhydryl oxidase, primary screen, biochemical, H2O2 detection, HRP-luminol luminescence, single point | FAD-linked sulfhydryl oxidase ALR (Homo sapiens), P55789 | purified ALR, DTT oxidation | inhibition, % (no concentration beside the values) | hit rate 3.8% among 290,000 | AID 485317, 2010;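 active = mean and each replicate at 75% or more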;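 note: stock transfer was 7.5 nL into about 7.5 µL; 0% = neutral wells and 100% = wells with inactivated enzyme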
Target sequence (P55789 whole entry, looked up): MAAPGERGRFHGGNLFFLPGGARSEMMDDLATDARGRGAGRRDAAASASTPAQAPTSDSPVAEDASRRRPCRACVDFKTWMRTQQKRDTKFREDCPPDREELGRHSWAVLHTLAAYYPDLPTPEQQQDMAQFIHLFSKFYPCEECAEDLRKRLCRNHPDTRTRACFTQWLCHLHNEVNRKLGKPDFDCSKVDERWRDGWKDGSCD
HNF4A DNA FP: change in binding of human HNF4A to DNA, primary screen, biochemical, fluorescence polarization, FITC-DNA; activity change, % at 10 µM; hit rate 0.3% among 360,000; 1 h; Hepatocyte nuclear factor 4-alpha (Homo sapiens), P41235; in the data active = activity change above about 30%, passing the limit was not always enough;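 note: controls were the assay level and a saturating level of protein; the project sought stronger binding though the title names inhibitors; some compounds called inactive have numbers as strong as hits; positive values seem to mean higher polarization but the record does not say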
LANA-H2B inh: blockers of LANA interaction with H2A/H2B – biochemical, FP readout, HTS, primary screen; Protein LANA1 (Human herpesvirus 8 type P (isolate GK18)), Q9QR71; cell-free LANA-H2A/H2B peptide, fluorescence polarization; inhibition, % (concentration not given with the values); hit rate 0.6% among 320,000; AID 2629, 2010; in the data active = inhibition mostly above about 10%, no sharp cut-off; inactive = mostly below about 6.7%;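 note: stock transfer was 7.5 nL into about 10 µL; 0% = median of vehicle wells and 100% = median of positive control wells; one replicate is shown; the record names a cut of 25% in any replicate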
UCH37 DUB inh: inhibitors of human UCH37 deubiquitinase, primary screen, biochemical, Ub-AMC cleavage, fluorescence; Ubiquitin carboxyl-terminal hydrolase isozyme L5 (Homo sapiens), Q9Y5K5; purified proteasome/UCH37; inhibition, % (test concentration not listed); hit rate 0.33% among 330,000;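 active = mean of two replicates above 20%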;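 note: 0% = compound-free wells with enzyme and 100% = wells lacking proteasome; stock transfer was 100 nL into about 20 µL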
Target sequence (Q9Y5K5 whole entry, looked up): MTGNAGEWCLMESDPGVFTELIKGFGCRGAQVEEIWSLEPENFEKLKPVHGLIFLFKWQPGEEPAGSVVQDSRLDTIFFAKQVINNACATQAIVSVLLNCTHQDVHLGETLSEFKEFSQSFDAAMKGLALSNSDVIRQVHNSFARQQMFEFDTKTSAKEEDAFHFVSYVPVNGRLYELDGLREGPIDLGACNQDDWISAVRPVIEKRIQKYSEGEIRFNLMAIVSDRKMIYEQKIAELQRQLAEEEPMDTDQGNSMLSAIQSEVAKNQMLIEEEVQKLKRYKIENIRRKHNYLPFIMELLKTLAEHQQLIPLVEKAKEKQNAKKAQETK
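Material: Human UCH37 enzyme supplied as purified proteasome complex | Schedule: 30 min preincubation with enzyme, 25 min cleavage at room temperature | Detection: AMC fluorescence 355/460 nm | Measure: % inhibition of Ub-AMC cleavage fluorescence | Controls: Wells without proteasome as full block, compound-free enzyme plus substrate as uninhibited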
E coli growth: E. coli growth inhibition, primary screen, OD600 | hit rate 0.21% among 330,000 | AID 1053175, 2014 | Escherichia coli growth, 23 h; stronger effect = lower value | OD600 absorbance (concentration not given with the values);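 active = OD600 absorbance below the run mean of sample wells minus 3.6 SD, in any replicate, cut at about 0.56 in these data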;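 note: stock transfer was 300 nL into about 60 µL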
FGF22 binding: binders of human FGF22 protein, primary screen, FGF22 synaptogenesis inhibitor project, biophysical, thermal shift, single point | Fibroblast growth factor 22 (Homo sapiens), Q9HCT0 | recombinant FGF22 thermal shift, SYPRO orange fluorescence; percent of sucrose octasulfate shift, DMSO zero | calls only at 9.99 µM | hit rate 1.5% among 340,000 | AID 651658, 2012;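 active = melting point raised past a set limit in the mean and every replicate; three in four hits are not shown here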
Starred values were filed as active, the others as inactive; i = inactive; . = not tested or not shown.

SMILES	B2AR ag	ALR H2O2 inh	HNF4A DNA FP	LANA-H2B inh	UCH37 DUB inh	E coli growth	FGF22 binding
Cc1ccc(S(=O)(=O)N2CCN(C(=O)CC(C)n3nc(C)c(Cl)c3C)CC2)cc1C (centres undefined)	4.3	-1.4	7.3	-3.5	4.2	0.721	i
CN/C(=C/[N+](=O)[O-])NCCSCc1csc(CN(C)C)n1	0.1	7.6	5.0	-3.2	2.8	.	i
COC(=O)C1=C(C)OC(N)=C(C#N)C1c1ccccc1F (centres undefined)	2.4	12.9	0.0	2.7	1.8	0.73	.
C=CCC[C@@H](Cc1ccc(F)cc1)C(=O)OC[C@@H]1CCCN1C(=O)[C@H](CC=C)CC(=O)N[C@H](CO)Cc1ccccc1	-8.6	-5.3	9.0	-8.0	1.2	.	i
Cc1sc2nc(CN3CCC(C)CC3)nc(Cl)c2c1C	.	97.3*	.	-7.7	-0.6	0.66	i
O=C(O)c1ccc(-n2c(-c3cc(C4CC4)[nH]n3)n[nH]c2=S)cc1	-5.6	.	-5.9	5.6	4.8	0.688	.
C[C@H](CO)N1C[C@H](C)[C@@H](CN(C)C(=O)Nc2ccc(C(F)(F)F)cc2)Oc2ccc(NC(=O)CCC(F)(F)F)cc2C1=O	-0.9	-4.1	-2.4	2.0	1.2	0.722	i
CS(=O)(=O)c1ncc(Cl)c(C(=O)Nc2ccc(OC(F)F)cc2)n1	-146.9	51.9	4.2	-2.5	.	.	.
O=C(CCc1ccccc1)NNc1ccc(F)cc1	-6.2	32.7	-4.5	6.0	-0.5	0.696	i
CCOC(=O)c1c(NC(=O)c2ccoc2C)sc(C(=O)N(C)C)c1C	-1.4	0.5	2.0	6.6	0.5	0.732	.
Cc1ccc(S(=O)(=O)N2CCC(C(=O)NCCC3=CCCCC3)CC2)cc1C	3.2	6.6	-6.6	-3.6	0.2	0.635	i
C=CCOc1c(Cl)cc(C2NC(=O)NC(C)=C2C(=O)OC)cc1Cl (centres undefined)	-2.4	-8.2	-4.1	-5.4	-3.9	0.711	i
Nc1c(Cl)ncnc1NCc1ccccc1	-2.2	6.5	0.9	6.4	0.1	0.696	i
COc1ccc(-c2nnc(SCC(=O)NCCc3ccccc3)o2)cc1	-8.2	-6.4	0.2	1.8	2.4	0.72	.
CSc1ccccc1C(=O)Nc1cccc(N(C)S(C)(=O)=O)c1	-3.7	-1.6	4.3	-1.9	0.9	0.666	i
CCCN(C(=O)COC(=O)c1cc(CC)c(C)s1)c1c(N)n(Cc2ccccc2)c(=O)[nH]c1=O	15.2	-2.2	-5.1	0.6	-1.9	0.703	i
CN(c1ccccc1)S(=O)(=O)c1cccc(NC(=O)c2cccc(C#N)c2)c1	2.4	-2.6	1.9	-0.4	-1.2	0.703	i
O=C(NCc1cccs1)c1ccc(CS(=O)Cc2ccccc2Cl)o1 (centres undefined)	1.5	21.5	-0.5	0.4	1.1	0.664	i
CCCn1ncc(CN2CCC(n3nccc3NC(=O)CCc3ccccc3)CC2)c1C	-10.6	-4.0	3.0	-0.2	-1.1	0.685	i
OCCNc1nc(-c2ccccc2)nc2c1oc1ccccc12	-9.3	-3.1	-1.4	0.8	7.3	0.643	i
CCCc1cc(=O)n2[nH]c(C)nc2n1	-2.7	2.4	1.4	-0.4	5.5	0.676	.
CCCc1cc(=O)oc2c(CN3CCN(C)CC3)c(O)ccc12	-3.2	-11.4	0.7	-0.7	i	0.677	i
CC(C)(C)CC(=O)NC(=S)NCc1ccco1	-5.7	-15.2	0.1	0.5	-1.2	0.694	i
Cc1ccc(OCc2nnc(SCC(=O)Nc3cc(C)on3)n2C)cc1	-7.0	-1.0	-2.1	3.5	4.0	0.677	.
Cc1ccc(S(=O)(=O)NC(C(=O)Oc2cc3oc(=O)cc(C)c3cc2Cl)C(C)C)cc1 (centres undefined)	14.9	2.9	-0.7	-4.0	i	0.626	i
Cc1ccccc1OCC(=O)OCC(=O)Nc1cc(S(C)(=O)=O)ccc1Cl	-5.6	.	-2.9	3.1	1.9	0.673	i
Cc1ccccc1Cn1cnc2c(oc3ccccc32)c1=O	0.3	-55.2	3.1	-2.9	-1.5	0.688	i
Cc1ccc(Nc2nc(NCc3ccco3)c3ccccc3n2)cc1	28.8	25.8	7.2	-2.6	-55.0	0.411*	i
O=C(COC(=O)c1cc(S(=O)(=O)N2CCOCC2)ccc1Cl)Nc1ccc2c(c1)OCO2	12.0	-17.4	0.7	0.8	-0.7	0.756	.
O=C(Cc1ccccc1)NC(=S)Nc1ccc2oc(-c3ccccc3F)nc2c1	-5.6	-6.2	0.9	-1.3	3.6	0.748	.
CC1CC(C)CN(CCCSc2ccccc2)C1 (centres undefined)	-3.7	-3.6	-1.4	2.9	2.2	0.644	.
CC(C)(C)C(=O)C1=C(O)C(=O)N(Cc2ccccc2)C1c1ccccc1Cl (centres undefined)	-3.2	-1.3	0.6	4.2	2.8	0.711	i
CC(=O)c1cc(NC(=O)c2ccc([N+](=O)[O-])cc2)c(=O)oc1C	-0.8	11.6	-2.4	-0.2	1.9	0.651	i
Cc1nnc2sc(SCC(=O)Nc3nccs3)nn2c1=O	3.0	98.7*	1.3	-4.2	.	.	.
CCOC(=O)c1c(NC(=O)c2cccc([N+](=O)[O-])c2C(=O)O)sc2c1CCCC2	-3.5	12.8	-0.7	-2.6	7.4	0.656	i
O=C(CSc1nc2ccccc2n1-c1ccccc1)NCC1CCCO1 (centres undefined)	1.4	-8.1	2.8	8.1	3.6	0.718	.
O=c1ccc(-c2nc3cc(Cl)ccc3n2Cc2ccccc2)c[nH]1	3.5	-4.9	-0.8	2.6	2.6	0.696	.
CC(C)=CC(=O)OCC(=O)NC1CCCc2ccccc21 (centres undefined)	0.1	-3.9	1.2	-1.7	.	.	i
NS(=O)(=O)c1ccc(NC(=S)Nc2cc(Cl)c(Cl)cc2Cl)cc1	3.6	.	4.5	-3.5	5.2	0.653	i
CC12CCC(O)CC1=CCC1C2CCC2(C)C3=NN=CC3CC12 (centres undefined)	-1.1	.	3.3	.	3.7	0.659	i
Cn1c(SCC(=O)Nc2ccc3c(c2)OCCO3)nnc1C1CC1	-8.2	5.0	2.1	5.6	2.3	0.714	i
O=C(NCCSc1ncc(-c2ccc(F)cc2)[nH]1)c1ccco1	0.7	40.5	-2.5	0.9	2.8	0.649	i
Cc1cccc(CS(=O)(=O)Cc2ccc(C(=O)NCc3cccnc3)o2)c1	-4.3	6.9	1.6	9.2	-2.1	0.662	.
Cc1ccc(NC(=O)C(=O)c2cn(CC(=O)N3CCCCC3)c3ccccc23)cc1	9.3	-5.7	-1.7	4.5	0.6	0.68	i
Cc1onc(-c2ccccc2)c1C(=O)NCCc1ccc(S(N)(=O)=O)cc1	7.2	-10.7	-0.5	-1.3	2.1	0.723	.
CC(Cl)C(=O)Nc1ccccc1C#N (centres undefined)	-3.0	-2.1	-2.1	-3.0	2.7	0.678	i
Cc1ccc(C)c(CN2C(=O)C3CCCN3c3ccc(C#N)cc32)c1 (centres undefined)	-6.0	-13.5	8.3	0.7	-26.8	0.716	.
COc1ccc(S(=O)(=O)NCc2ccc(C(=O)NCc3cccnc3)cc2)cc1	.	-1.4	.	0.4	-0.1	0.64	i
COc1ccc(NC(C)=O)cc1NC(C)C(=O)Nc1cc(C(F)(F)F)ccc1N1CCOCC1 (centres undefined)	1.9	7.0	-1.1	-4.9	1.6	0.642	i
c1ccc(-c2cc3c(NCC4COc5ccccc5O4)ncnc3s2)cc1 (centres undefined)	0.7	-9.0	5.0	0.5	-141.2	0.718	i

Compound profiles, as listed above.
COc1ccc(S(=O)(=O)NCc2ccc(C(=O)NCc3cccnc3)cc2)cc1 is listed with B2AR ag: .; ALR H2O2 inh: -1.4; HNF4A DNA FP: .; LANA-H2B inh: 0.4; UCH37 DUB inh: -0.1; E coli growth: 0.64; FGF22 binding: i
Cc1onc(-c2ccccc2)c1C(=O)NCCc1ccc(S(N)(=O)=O)cc1 is listed with B2AR ag: 7.2; ALR H2O2 inh: -10.7; HNF4A DNA FP: -0.5; LANA-H2B inh: -1.3; UCH37 DUB inh: 2.1; E coli growth: 0.723; FGF22 binding: .

(next part)
SMILES	B2AR ag	ALR H2O2 inh	HNF4A DNA FP	LANA-H2B inh	UCH37 DUB inh	E coli growth	FGF22 binding
CC(C)(C)N(Cc1cc2ccccc2[nH]c1=O)C(=O)c1cccc([N+](=O)[O-])c1	-2.6	1.3	-1.2	3.2	5.2	0.701	i
CCN1CC2=C(OC(N)=C(C#N)C2c2ccccc2)/C(=C\c2ccccc2)C1 (centres undefined)	14.4	-5.6	-0.6	3.4	1.5	0.719	.
COc1ccc(Cl)cc1NC(=O)CNc1ccccc1F	-2.1	-21.9	9.2	5.2	-0.2	0.682	.
COc1ccc(NC(=O)C(C)SCc2ccccc2)cc1 (centres undefined)	-0.6	-6.7	0.2	3.3	3.0	0.655	i
CCN(CC(=O)Nc1c(F)cccc1F)C(=O)C1Cc2ccccc2CN1S(=O)(=O)CC (centres undefined)	-6.8	-5.7	-1.7	4.0	1.8	0.652	.
CCOc1ccc(CN(CC)C(=O)Cc2c[nH]c3ccccc23)cc1OC	5.3	-2.1	-0.6	7.3	-0.3	0.702	i
N#Cc1ccccc1NC(=O)Nc1ccc(Cl)cc1	-4.4	2.8	-2.3	-3.1	-14.3	0.664	.
COC(=O)c1cc([N+](=O)[O-])c(-n2ccnc2)c([N+](=O)[O-])c1	6.9	8.8	-1.3	-2.0	8.8	0.675	i
O=C(Nc1ccccc1Cl)O/N=C(/c1ccccc1)c1ccccn1	-2.7	-1.4	1.1	3.3	.	.	.
O=C(NCc1ccc(Cl)cc1)N1CCOCC1	-0.8	-1.1	1.4	-1.5	-2.3	0.633	i
O=C1[C@H](Cc2ccccc2)NCC=CC[C@@H](c2ccco2)N1Cc1ccccc1	-10.9	.	0.0	.	1.1	.	i
Cc1nc(-c2ccc(Cl)cc2)sc1C(=O)NNC(=O)C(C)C	6.2	2.9	5.5	4.7	5.2	0.691	i
Cc1cccc(/C=C2\Sc3ccc(C(=O)NCC4CCCO4)cc3N(C)C2=O)c1 (centres undefined)	7.3	2.9	1.4	-0.1	0.8	0.666	i
Cc1ccc(S(=O)(=O)N(C)c2ccc(OC(=O)c3ccc(N4CCCC4=O)cc3)cc2)cc1	-0.5	1.1	-1.8	0.3	3.7	0.722	i
O=C(NC1CCS(=O)(=O)C1)C1CCCN(S(=O)(=O)c2ccc(Cl)cc2)C1 (centres undefined)	-4.4	24.1	-3.9	-0.8	4.8	0.722	.
Cc1ccc(N(CC(O)CN2CCCC2)S(=O)(=O)c2ccc(C)cc2)cc1 (centres undefined)	4.9	-15.6	1.1	4.4	0.0	0.724	.
CCc1ccc(NC(=O)Cc2ccc(-n3cccc3)cc2)cc1	-5.3	.	2.3	0.9	3.1	0.735	.
CCOC(=O)c1[nH]c(C)c(C(=O)OCCN2C(=O)c3ccccc3C2=O)c1C	-23.5	-2.7	-2.0	2.0	3.6	0.7	.
Cc1nnc(-c2cccc(Br)c2)c2cn(-c3ccccc3Cl)nc12	1.2	4.0	32.5	7.8	0.0	0.715	.
COc1cc(/C=N/n2c(-c3cc(C)[nH]n3)n[nH]c2=S)cc(OC)c1O	4.6	59.2	-1.4	-0.3	.	.	i

The list is partial; the hit share may differ from the screen's.
